# TRPML1 agonist = qHTS for Agonists of the Human Mucolipin Transient Receptor Potential 1 (TRPML1). Mucolipin-1 (Homo sapiens), Q9GZU1. TRPML1-expressing cells, Ca2+ dye fluorescence, FDSS; host cell line not named in the record; reference of the full effect not given here. activation, % (concentration not given with the values). actives 0.12% (n = 410,000). AID 624414, 2012; in the data active = activation above about 50%; inconclusive = about 30% to 50%; inactive = below about 30%; note: 0% is about no effect; the text of the record puts the active cut at 80%
#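 TRPML1-DL cells, Tet-induced overnight (~16 h, 37 degrees C), loaded 45-90 min at room temperature with Ca8 no-wash calcium dye plus quencher. FDSS fluorescence: 10 s baseline, compound pin-transfer, 110 s agonist read, then EC80 54-4 (4uM final) and 110 s antagonist read.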
# ClpP mod = qHTS Assay for Activators of ClpP; ATP-dependent Clp protease proteolytic subunit (Bacillus subtilis (strain 168)), P80244; purified B. subtilis ClpP, FRET peptide cleavage, 20 min; Potency, µM (highest dose often 57.5 µM), inactives show at the highest dose activity change, negative = active; actives 1.9% (n = 340,000); active = well fitted falling curve with a large enough effect; inconclusive = small, poorly fitted or top-dose-only effect; inactive = no such curve, though single readings can be large or run the other way; note: potency is the fitted concentration of half-maximal effect; the source files actives as falling curves though it sought activators and does not explain the sign; nearly all actives have a fitted effect of over 65% in size; many hits overshoot -100%
# Target sequence (P80244 whole entry, looked up): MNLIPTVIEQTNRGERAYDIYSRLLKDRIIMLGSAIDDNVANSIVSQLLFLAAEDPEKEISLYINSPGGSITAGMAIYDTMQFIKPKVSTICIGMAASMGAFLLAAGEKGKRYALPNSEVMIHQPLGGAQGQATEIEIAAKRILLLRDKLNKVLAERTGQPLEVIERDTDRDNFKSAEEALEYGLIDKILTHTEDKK
#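 Buffer: 100 mM Tris/HCl pH8, 100 mM KCl, 0.05% low protease BSA, 2.5% glycerol, 0.01% Tween-20. ClpP 10 microg/mL final; 20 min RT; delta FRET normalized to ADEP and DMSO controls.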
# Sfp inh = qHTS Assay for Inhibitors of Bacillus subtilis Sfp phosphopantetheinyl transferase (PPTase). Potency, µM, inactives show max response, negative = inhibition, most hits filed as inhibitors. Biochemical Sfp PPTase activity, qHTS. actives 3.5% (n = 310,000). 4'-phosphopantetheinyl transferase ffp (Bacillus subtilis), Q9F4F7; active = well fitted inhibition curve with a large enough effect; inconclusive = small, poorly fitted or top-dose-only effect, or another doubt; inactive = no such curve, though single readings can be large or run the other way;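 note: the enzyme is Sfp with the accession as filed and its product quenches rhodamine fluorescence; potency is the fitted concentration of half-maximal effect; 0% = enzyme reaction without inhibitor and -100% = no enzyme wells; top concentration of the series not given in the record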
#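 Step 1, compound plus 15 nM Sfp-PPTase, 15 min, room temperature. Step 2, add rhodamine-CoA (5 uM) and BHQ-2-YbbR (12.5 uM). Step 3, read 525/598 nm fluorescence at 0 and 30 min.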
# TRPML1 inh = qHTS for Inhibitors of the Human Mucolipin Transient Receptor Potential 1 (TRPML1) | actives 0.02% (n = 390,000) | TRPML1-inducible cells, Ca2+ dye fluorescence, FDSS; hits give low values; inhibition of EC80 agonist-evoked calcium signal | activity change, negative = inhibition, % (concentration not given with the values); in the data active means activity change below about -50%; inconclusive means about -30% to -50%; inactive means above about -30%;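 note: stimulus is agonist 54-4 at its EC80 concentration; % is set by controls: 0 for no effect and ±100 for the full control effect; compound concentration not given in the record; the text of the record puts the active cut at -80%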
#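 Calcium fluorescence in TRPML1-DL cells induced overnight with Tet: a 110 s read after compound pin addition, then a 110 s antagonist read after challenge with 54-4 at 4 uM final (EC80).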
# PINK1 modulator = A Quantitative High throughput Screen to Identify Chemical Modulators of PINK1 Expression; PINK1 immunofluorescence, high-content cytometry, 24 h; Potency, µM (highest dose often 76.6 µM), inactives show top-dose activation (PINK1 increase), hits mostly activators; actives 0.2% (n = 410,000); active = well fitted activation curve with a large enough effect; inconclusive = small, poorly fitted or top-dose-only effect; inactive = flat fitted curve, though single readings scatter; cell line not stated here;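 note: potency is the fitted concentration of half-maximal effect; % of control where 0% means no effect; nearly all actives have a fitted effect of over 65% in size; a mitochondrial uncoupler was the plate control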
#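 Measures PINK1 amount and localization on or inside mitochondria by immunofluorescence. Stable cells get compounds at 5 concentrations for 24 hours before fixation and staining; CCCP controls included.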
# Menin MLL FP FL = qHTS Assay for Inhibitors Targeting the Menin-MLL Interaction in MLL Related Leukemias: Competition With Fluorescein Labeled MLL-derived Peptide; Fluorescence polarization, fluorescein-MLL peptide displacement from menin; FP activity change, % at 61.4 µM; 290,000 tested, under 10 active; inconclusive = falling polarisation curve, or a change in total fluorescence; inactive = total fluorescence flat and polarisation flat or rising; no compound was filed as active; the % refers to the polarisation; negative = inhibition;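 note: % of control where 0% means no effect; inhibitors lower the polarisation; unlabelled MLL peptide was the positive control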
# TRPV1 PAM = HTS Assay for Compounds that Act as Potentiators of the Vanilloid Receptor 1. Transient receptor potential cation channel subfamily V member 1 (Homo sapiens), Q8NER1. TRPV1-expressing cells, Fluo-8 calcium influx, capsaicin EC20 potentiation; host cell line not named in the record; control for the full effect not named in the record. potentiation, % at 8.33 µM. actives 0.02% (n = 320,000); active means potentiation above 80%; inconclusive means 30% to 80%; inactive means below 30%; note: 0% is about no effect
# Target sequence (Q8NER1 whole entry, looked up): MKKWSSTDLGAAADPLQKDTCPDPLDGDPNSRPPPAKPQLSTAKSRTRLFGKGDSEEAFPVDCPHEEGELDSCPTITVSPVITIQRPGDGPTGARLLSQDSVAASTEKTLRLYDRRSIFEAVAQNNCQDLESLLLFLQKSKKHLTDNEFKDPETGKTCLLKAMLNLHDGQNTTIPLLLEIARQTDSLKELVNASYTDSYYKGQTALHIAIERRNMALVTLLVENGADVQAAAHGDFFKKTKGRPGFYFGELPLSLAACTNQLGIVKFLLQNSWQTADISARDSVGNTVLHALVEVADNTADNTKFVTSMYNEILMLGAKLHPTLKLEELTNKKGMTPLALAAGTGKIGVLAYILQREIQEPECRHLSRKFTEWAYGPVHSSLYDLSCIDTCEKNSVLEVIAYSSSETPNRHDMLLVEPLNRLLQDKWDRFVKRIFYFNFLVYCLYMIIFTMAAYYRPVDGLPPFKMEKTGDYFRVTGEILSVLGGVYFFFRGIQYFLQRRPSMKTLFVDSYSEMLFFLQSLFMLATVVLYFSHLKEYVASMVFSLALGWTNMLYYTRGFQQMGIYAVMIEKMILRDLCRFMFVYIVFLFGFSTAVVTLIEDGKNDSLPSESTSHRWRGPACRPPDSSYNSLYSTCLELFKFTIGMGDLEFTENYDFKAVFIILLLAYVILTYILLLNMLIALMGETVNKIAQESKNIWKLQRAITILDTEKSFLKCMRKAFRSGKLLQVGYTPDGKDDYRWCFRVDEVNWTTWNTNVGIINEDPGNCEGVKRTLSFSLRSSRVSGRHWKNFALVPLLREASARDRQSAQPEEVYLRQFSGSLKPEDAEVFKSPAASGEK
#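 Fluo-8 calcium influx in TRPV1-expressing cells, kinetic read (ex 480/em 520 nm). Compound added and read 3 min for agonist activity, followed by capsaicin at EC20 final and 2 min further read for enhancement.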
# * = called active by the depositor; ? = inconclusive; · = not tested or not shown; & = joins results of further samples; [ ] = remark or other dose.
nr	canonical_smiles	TRPML1 agonist	ClpP mod	Sfp inh	TRPML1 inh	PINK1 modulator	Menin MLL FP FL	TRPV1 PAM
1	CCN(CC)S(=O)(=O)c1ccc(SCC(=O)c2c(N)n(C3CC3)c(=O)[nH]c2=O)nc1	-0.5	0.6%	·	-8.4	2.1%	·	·
2	COc1cccc(/C=N/NC(=O)Cn2cnc3c2c(=O)n(C)c(=O)n3C)c1OC	0.0	-4.4%	14.5%	-2.2	0.2%	1.1	0.7
3	CN(CC(=O)Nc1cccc(F)c1)C(=O)/C=C/c1ccc(Br)s1	3.0	·	·	-7.6	1.8%	·	-15.0
4	CC1CCCCN1C(C(=O)O)c1ccccc1 (configuration not stated)	0.4	·	4.9%	-3.1	0.4%	-2.9	-1.8
5	CCN(CC1CCCO1)C(=O)CCc1nnc(CCc2ccc(OC)cc2)o1 (configuration not stated)	-0.1	-1.0%	10.7%	-4.2	1.4%	5.4	-3.1
6	CN1C(=S)SC(N(O)C(=O)Nc2ccccc2)C1(C)C (configuration not stated)	-0.6	0.1%	13.2%	-2.1	0.4%	-0.3	2.0
7	COc1ccccc1NS(=O)(=O)c1cccc(C(=O)N/N=C(\C)c2ccncc2)c1	-0.2	1.0%	·	15.2	3.1%	·	4.8
8	Cc1oc(C(=O)O)cc1CSc1nnc(-c2ccccc2)n1C	-0.1	1.0%	6.2%	-2.0	1.7%	0.2	-0.5
9	Cc1ccc(-n2c(=O)[nH]c3c(C(N)=O)nc(CC(C)C)nc32)cc1	-0.8	28.2µM*	-6.0%	40.3	-1.8%	4.7	-1.0
10	COc1cc(C(=O)N2CCC(c3nc4ccccc4s3)CC2)cc(OC)c1OC	-0.1	-1.2%	·	-3.0	1.9%	·	·
11	O=C(N/N=C/c1cn(-c2ccccc2)nc1-c1ccccc1)c1ccco1	0.6	·	-2.8%	-3.6	-1.3%[38.3 µM]	1.4	-3.3
12	CCCCCOC(=O)Cc1c(O)c2ccccc2[nH]c1=O	1.1	15.8µM*	-0.8%	-14.7	1.3%	2.7	1.4
13	O=c1c(-c2ccccc2)nc2cnc(Oc3ccccc3)nc2n1C[C@H]1CCCO1	·	·	19.5%	·	-0.6%	2.4	·
14	CC(C)=C[C@@H]1C[C@H](C)[C@H]2CC[C@H](C)c3c(O[C@@H]4O[C@@H](C)[C@@H](O)[C@@H](O)[C@@H]4O)c(O)c(C)c1c32	-0.1	-1.9%	·	-11.5	-2.2%	·	·
15	c1ccc(COc2cccc(CN3CCc4ccccc4C3)c2)cc1	0.2	·	-2.5%	-1.5	2.5%	-1.6	-1.4
16	COC(=O)c1cc(C)sc1NC(=O)C1C2C=CC(CC2)C1C(=O)O (configuration not stated)	-0.3	-10.3%	-15.5%	-6.8	-2.4%	3.4	-1.6
17	O=C(c1ccccc1)c1cnc(Nc2ccccc2Cl)s1	-0.1	-11.6%	-7.3%	17.1	-21.9%[38.3 µM]	0.9	·
18	Cc1ccccc1OCC(=O)Nc1ccc(OCc2cc(=O)n3ccsc3n2)cc1	-0.6	0.3%	·	5.9	?	·	·
19	CCn1c(=O)cc(OCC(=O)Nc2cccc(C)n2)c2ccccc21	1.5	-8.6%	17.4%	52.4	0.4%	-1.6	4.8
20	O=C(COC(=O)Cc1ccc(F)cc1)NC1CCS(=O)(=O)C1 (configuration not stated)	0.0	-0.1%	·	-3.8	0.6%	·	-10.9
21	C=C(C)COc1ccc(-c2ncncc2-c2ccccc2OC)c(O)c1	1.3	·	-3.9%	-2.4	7.9%	4.1	-22.2
22	CCC(=O)N(Cc1ccco1)c1nc(-c2cc(OC)ccc2OC)cs1	-0.6	-7.8%	22.3%	11.3	9.0%	5.1	6.2
23	CN1CCN(CC(=O)N(Cc2c(C#N)c3ccccc3n2C)c2ccccc2)CC1	2.0	1.6%	9.5%	2.0	-0.3%	5.8	-0.5
24	Cc1ccc(CC2C(=O)N(c3nc(C)cc(C)n3)C(=O)C2C)cc1 (configuration not stated)	0.6	·	0.7%	-1.1	0.3%	2.1	-9.6
25	O=C(O)c1c2c(nc3ccccc13)/C(=C/c1ccc(O)cc1)CCC2	0.1	-1.8%	12.4%	1.0	-0.3%	4.8	22.0
26	CC(c1ccccc1)N1CCn2c(nc3cc(NC(=O)c4cccs4)ccc32)C1 (configuration not stated)	-0.2	-15.4%	4.8%	0.4	0.7%[38.3 µM]	0.5	4.6
27	Cc1cc(-c2ccccc2)nc(SCC(=O)N2CCCC2)n1	-0.3	·	24.5%	-5.4	-0.1%	-0.3	-5.1
28	CCOC(=O)C1CCCN(S(=O)(=O)c2ccc(S(N)(=O)=O)cc2)C1 (configuration not stated)	-0.2	·	21.9%	2.9	4.1%	-2.6	2.0
29	CC(NC(=O)COC(=O)c1ccc(Cl)cc1O)c1ccc(F)cc1 (configuration not stated)	0.6	0.2%	-0.3%	-12.9	5.4%	8.2	-2.4
30	COc1ccc(C(=O)Nc2ccc3nc(SCC(=O)N4CCc5ccccc54)sc3c2)cc1	0.4	4.1%	·	-0.2	4.0%	·	·
31	COc1ccc(C(=O)C2CCCN(C(=O)/C=C/c3ccccn3)C2)c(C)c1 (configuration not stated)	1.0	·	9.4%	-10.1	1.3%	-3.4	-13.9
32	COc1cc(NC(=O)Nc2cc(C)on2)cc(OC)c1OC	0.0	·	11.4%	-1.4	-0.1%	0.3	9.3
33	Cc1cc(C)cc(OCC(=O)Nc2ccc(-c3nc4ncccc4o3)cc2C)c1	-0.3	?	·	8.6	0.6%	·	·
34	CC(=O)Nc1ccc(NC(=O)c2ccc(Cl)c(S(=O)(=O)N3CCc4ccccc43)c2)cc1	1.7	-10.2%	·	3.3	?	·	·
35	Nc1ccccc1Sc1ccccc1[N+](=O)[O-]	-0.1	1.0%	-1.9%	9.0	4.1%	5.0	-2.4
36	COc1ccc(S(=O)(=O)N(CCCN2CCOCC2)Cc2cccc(OC)c2OC)cc1	-1.0	1.1%	11.8%	8.0	-0.1%	-0.1	1.1
37	COC(=O)[C@]1(Cc2ccccc2)N[C@H](CN(C)C(=O)c2ccc(C)cc2)[C@@H]2C(=O)N(C)C(=O)[C@@H]21	3.2	-0.6%	·	6.3	-0.1%	·	·
38	CN1C(=O)C(O)(C2COC(C)(C)CC2=O)c2cc(Br)ccc21 (configuration not stated)	7.2	-0.9%	11.5%	8.1	2.8%	-4.1	-1.2
39	CN(C)c1ccc(C=Nc2cnc3ccccc3c2)cc1	-0.1	4.2%	·	·	-0.4%	·	·
40	COc1ccc2oc(C(=O)N3CCN(c4ncccn4)CC3)c(C)c2c1	-0.2	-8.8%	7.2%	3.5	1.4%	1.7	-12.8
41	CNC(=O)COc1coc(CN2CCN(C(=O)c3ccco3)CC2)cc1=O	1.5	-2.2%	·	-24.7	1.0%	·	5.2
42	CC(C)N(Cc1ccccc1)C(=O)CN1C(=O)NC(Cc2ccccc2)(c2ccccc2)C1=O (configuration not stated)	0.3	1.2%	1.2%	3.4	-1.3%	·	-3.5
43	CC1(C(=O)O)CCCN(C(=O)C2(c3ccc(Cl)cc3)CCCC2)C1 (configuration not stated)	0.2	2.1%	·	8.4	0.0%	·	·
44	COC(=O)c1ccc(C23CC4(C2)[C@H](CN(Cc2ccc(-c5ccccc5)cc2)[C@@H]4c2ccccc2)C3c2ccccc2)cc1 (some centres not stated)	-0.3	-16.8%	9.5%&12.3%	-20.4	3.2%	0.6&7.4	12.8
45	CCCCN(C(=O)C1CCC1)c1c(N)n(CCC)c(=O)[nH]c1=O	-0.4	·	·	-17.5	-3.0%	·	-3.6
46	CCc1ccccc1NC(=S)N(CCCN(C)C)Cc1cc2cc3c(cc2[nH]c1=O)OCO3	-0.4	·	10.0%	17.1	-0.3%	0.2	4.7
47	Cc1ccc(N2CC(NC(=O)c3cccs3)CC2=O)cc1 (configuration not stated)	-0.8	-0.4%	·	26.7	-0.8%	·	·
48	O=S(=O)([O-])C/C(=C\c1ccc(Cl)cc1)c1cc[n+](CCO)cc1	-0.3	·	2.5%	-2.1	-2.4%	1.3	4.4
49	CCOC(=O)c1c[nH]n2c(=S)ncnc12	0.0	0.9%	·	11.3	0.1%	·	·
50	O=C(c1ccc(S(=O)(=O)N2CCCCCC2)cc1)N1CCCC(C(F)(F)F)C1 (configuration not stated)	0.6	0.5%	·	-7.8	0.4%	·	-32.6
51	Cc1cnc(-c2nnc(N(C)C(=O)C3CCOC3)s2)cn1 (configuration not stated)	0.3	28.2µM*	2.8%	19.3	-0.6%	2.5	-1.6
52	O=C(CCc1ccccc1)NC1C2CC3CC(C2)CC1C3 (configuration not stated)	0.9	·	12.5%	-15.4	0.4%	-0.1	2.8
53	Cn1c(=S)[nH]c2c(c1=O)C(C)(C)Cc1ccccc1-2	2.0	·	?	-18.7	2.4%	-0.9	-5.7
54	Cc1ccc(NC(=O)C2CCN(c3cc(C)nc4c(-c5ccc(Cl)cc5)c(C)nn34)CC2)c(C)c1	-0.6	4.1%	·	-14.9	4.0%	·	·
55	Cc1ccc(NC(=O)CCN2CCN(C/C=C/c3ccccc3)CC2)cc1	1.1	0.1%	12.4%	6.8	-2.6%	2.6	12.4
56	CC(C)C(C)NC(=O)COc1ccc(-c2ccccc2)cc1 (configuration not stated)	3.1	1.0%	11.9%	2.2	-1.7%	-0.6	-2.9
57	CCCOc1ccc(C(=O)NCC(c2ccco2)N(C)C)cc1 (configuration not stated)	0.8	-1.4%	4.8%	20.6	1.1%	-2.2	1.5
58	CC(=O)NCCC(=O)N1CCc2c([nH]c3ccccc23)C1c1cccc(Cl)c1 (configuration not stated)	1.2	·	9.3%	8.5	6.6%	6.6	-3.3
59	CCN1CCN(c2ccc(NC(=O)c3cnccn3)cc2)CC1	·	·	21.8%	·	·	-5.7	-0.9
60	Cn1c(-c2ccc3c(c2)OCO3)cnc1NCc1ccccc1	-0.4	-20.7%	-20.7%	12.5	58.0%[38.3 µM]	6.7	?
61	Cc1ccc(NC(=O)CSc2ccc3nnc(CCNC(=O)c4ccccc4)n3n2)c(C)c1	-0.4	-0.1%	4.9%	1.3	1.1%	1.8	-3.1

# Screening results from PubChem BioAssay.
